D2 potentiator – positive allosteric modulators of human D2 dopamine receptor. P14416. DiscoveRx D2 beta-arrestin cells, luminescence, 90 min; 100% = 57 uM dopamine signal. potentiation, % (test concentration not listed). hit rate 0.23% among 360,000; active = potentiation of 50% or more; inconclusive = 30% to 50%; inactive = 30% or less;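 further: compound concentration not given in the record; tested on top of an EC20 dose of dopamine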
Target sequence (P14416 whole entry, looked up): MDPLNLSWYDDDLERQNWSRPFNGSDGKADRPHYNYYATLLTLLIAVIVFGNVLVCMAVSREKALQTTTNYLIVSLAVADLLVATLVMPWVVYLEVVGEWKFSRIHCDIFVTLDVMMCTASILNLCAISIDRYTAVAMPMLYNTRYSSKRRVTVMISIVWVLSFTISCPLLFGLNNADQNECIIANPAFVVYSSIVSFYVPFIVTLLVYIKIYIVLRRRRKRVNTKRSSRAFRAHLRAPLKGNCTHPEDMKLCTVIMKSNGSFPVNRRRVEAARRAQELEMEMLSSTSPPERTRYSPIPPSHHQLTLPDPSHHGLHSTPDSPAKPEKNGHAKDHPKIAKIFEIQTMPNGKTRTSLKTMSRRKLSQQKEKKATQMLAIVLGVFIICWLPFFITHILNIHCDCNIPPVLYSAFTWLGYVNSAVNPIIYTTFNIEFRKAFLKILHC
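PathHunter D2 cells, attached overnight at 37 deg C, received compound in DMSO plus dopamine at EC20 (50 nM final) for 90 min at 37 deg C. Beta-arrestin recruitment was read as luminescence after 1 h with detection reagent at ambient temperature.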
TRPV1 PAM – human TRPV1 potentiation | Q8NER1 | TRPV1-expressing cells, Fluo-8 calcium influx, capsaicin EC20 potentiation; host cell line not named in the record; control for the full effect not named in the record | potentiation, % at 8.33 µM | hit rate 0.02% among 320,000 | AID 540277; active means potentiation above 80%; inconclusive means 30% to 80%; inactive means below 30%; further: 0% is about no effect
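Cells expressing TRPV1 were dye-loaded with Fluo-8 and read kinetically: 10 s baseline, 3 min after compound (agonist portion), then 2 min after EC20 capsaicin (allosteric enhancer portion). Calcium-bound dye fluorescence at 480/520 nm.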
Six1-Eya2 blk – Six1/Eya2 interaction inhibition | AlphaScreen GST-Six1/His-Eya2 binding, biochemical; hits give low values; control for the full effect not named in the record | activity change, % (concentration not given with the values) | hit rate 0.56% among 360,000 | AID 651725; in the data active = activity change below about -65%; inconclusive = about -30% to -65%; inactive = above about -30%; further: on the % scale 0 is the no-effect control and ±100 the full control effect
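Homogeneous AlphaScreen proximity assay pairing GST-Six1 with His-tagged Eya2 (added as 5X mix: 250 nM and 500 nM) in 50 mM Tris pH 8.0, 300 mM NaCl, 1 mM TCEP. Glutathione donor and nickel acceptor beads; 1 h, 37 °C, dark.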
PINK1 modulator – changes PINK1 expression | PINK1 immunofluorescence, high-content cytometry, 24 h | Potency, µM (top dose mostly 76.6 µM), without a hit: at the highest dose activation (PINK1 increase), most hits filed as activators | hit rate 0.2% among 410,000 | AID 624263; active = well fitted activation curve with a large enough effect; inconclusive = small, poorly fitted or top-dose-only effect; inactive = flat fitted curve, though single readings scatter; cell line not stated here;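 further: potency means the concentration at half of the fitted maximal effect; % of control where 0% means no effect; nearly all actives have a fitted effect of over 65% in size; a mitochondrial uncoupler was the plate control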
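Measures PINK1 amount and localization on or inside mitochondria by immunofluorescence. Stable cells get compounds at 5 concentrations for 24 hours before fixation and staining; CCCP controls included.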
CtBP-E1A inh – CtBP/E1A binding inhibition; hit rate 0.49% among 340,000; AlphaScreen GST-E1A/His-CtBP binding, 1536-well; hits give low values; control for the full effect not named in the record; activity change, % (no concentration beside the values); in the data active means activity change below about -65%; inconclusive means about -30% to -65%; inactive means above about -30%; further: on the % scale 0 is the no-effect control and ±100 the full control effect; compound concentration not given in the record
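Protein mix (5X: 125 nM each GST-E1A, His-CtBP) was incubated with pinned compound 2 h at 37 deg C in dark, in 50 mM Tris pH 8.0 buffer with 300 mM NaCl. Glutathione donor and nickel acceptor beads followed; AlphaScreen signal read after 1 h.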
D2 ag – activates the human D2 dopamine receptor. hit rate 0.084% among 360,000. activation, % (test concentration not listed). DiscoveRx PathHunter D2 beta-arrestin, luminescence, 90 min; 100% = 57 uM dopamine signal; in the data active = activation above about 40%; inconclusive = about 15% to 40%; inactive = below about 15%; further: compound concentration not given in the record; the text of the record calls up to 30% inactive
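DiscoveRx PathHunter D2 beta-arrestin cells (2,100/well) attached overnight, then compound-stimulated 90 min at 37 C in HBSS/10 mM HEPES/0.1% Tween-20 buffer; beta-galactosidase complementation read by luminescence after 1 h at ambient temperature. Dopamine 57 uM final (EC100) as control.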
Sfp inh – inhibitors of Bacillus subtilis Sfp phosphopantetheinyl transferase | AID 1490 | Biochemical Sfp PPTase activity, qHTS | Potency, µM, for the others: max response, negative = inhibition, hits mostly inhibitors | hit rate 3.5% among 310,000 | Q9F4F7; active means well fitted inhibition curve with a large enough effect;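 further: the enzyme is Sfp with the accession as filed and its product quenches rhodamine fluorescence; potency means the concentration at half of the fitted maximal effect; 0% = enzyme reaction without inhibitor and -100% = no enzyme wells; top concentration of the series not given in the record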
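With Hepes-Na pH 7.6 buffer containing 10 mM MgCl2, Sfp (15 nM) modified BHQ-2-YbbR (12.5 uM) using rhodamine-CoA (5 uM). Two reads 30 minutes apart at 525/598 nm yielded each well's rate.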
Active calls of the source: *; / = no result given; & = joins results of further samples; [ ] = dose if it differs, or a comment.

SMILES	D2 potentiator	TRPV1 PAM	Six1-Eya2 blk	PINK1 modulator	CtBP-E1A inh	D2 ag	Sfp inh
COc1ccc(NC(=O)CCCNC(=O)c2ccc(Cl)cc2)cc1S(=O)(=O)N1CCCCC1	2	/	3	8.6%	/	1.0	/
Cc1ccc(S(=O)(=O)N2CCN(C(=O)c3c(-c4ccccc4)noc3C)CC2)c(C)c1	-1	22	10	-0.3%	7	-1.9	19%
Cc1ccc(NC(=O)CN(C)C(=O)CNC(=O)c2cccs2)cc1	7	5	4	-2.1%	2	-1.8	/
O=C(OCC(=O)N1CCOCC1)c1c(Cl)ccc(Cl)c1Cl	-20	-11	8	0.6%	0	9.0	23%
CCNCC(=O)Nc1ccc(N2CCOCC2)cc1	-9	3	7	0.5%	-14	-18	-2%
CC(C)N=C(NS(=O)(=O)NC(=O)c1ccccc1)c1ccccc1	-12	-4	-9	0.6%	/	-4.1	-1%
Nc1nonc1-n1nnc(C(=O)N/N=C/c2ccccc2Cl)c1COc1ccc(F)cc1	-3	10	-5	5.2%	-9	-6.2	21%
Cc1cc2c(cc(C(=O)OCC(=O)NCc3cccs3)n2C(C)C)o1	-18	-11	-20	/	8	1.2	-24%
CN(C)/C=C1\C(=O)N(c2ccc([N+](=O)[O-])cc2)N=C1c1ccccc1	-6	11	-1	1.9%	-12	-2.0	-8%
C#CCOCCOCCOCCNc1nc(N2CCN(C(=O)C(CCC(=O)O)n3cc(C(N)CC(C)C)nn3)CC2)nc(N2CCN(C(=O)C(Cc3cc4ccccc4[nH]3)n3cc(C(N)Cc4ccc(O)cc4)nn3)CC2)n1 (stereo not drawn)	-9	16	-26	-0.9%	-26	-1.5	-3%
COc1ccc(CCNC(=S)Nc2ccc(C)cc2C)cc1	-3	-16	-10	-0.3%	-2	-2.7	17%
COc1cccc(/C=N/NC(=O)C(c2ccncc2)N2CCOCC2)c1 (stereo not drawn)	0	-4	-3	0.0%	9	-4.9	6%
CCOC(=O)C1CCCN(CCC(=O)Nc2c(C(=O)OC)[nH]c3cc(OC)ccc23)C1 (stereo not drawn)	4	-11	-4	-1.0%	0	-1.3	3%
Cc1cc(NC(=O)CSc2nnc(-c3cccnc3)n2N)no1	-12	0	-12	2.0%	-7	-4.3	4%
CCN(c1ccccc1)S(=O)(=O)c1ccc(OC)c(NC(=O)c2ccco2)c1	-14	/	-28	-0.4%	1	0.7	/
O=C(NCc1ccc(F)cc1)C(=O)NCC1OCCN1C(=O)c1cccs1 (stereo not drawn)	-17	-2	1	4.3%	8	-2.4	19%
CCCNC(=O)c1cc(C)no1	2	-14	7	-1.1%	3	-3.8	13%
CCS(=O)(=O)c1ccc(Sc2nncn2C)c([N+](=O)[O-])c1	12	8	12	-1.0%	8	1.1	0%
Cc1cc(C)n(-c2nc3ccccc3nc2Nc2ccc3[nH]c(=O)[nH]c3c2)n1	16	-1	0	10%[38.3 µM]	-2	-3.5	2%
O=c1cc(CO)[nH]cc1OCc1ccccc1	-3	-5	3	-0.5%	10	-4.7	24%

The list goes on, overlapping the part above by 5 compounds.
SMILES	D2 potentiator	TRPV1 PAM	Six1-Eya2 blk	PINK1 modulator	CtBP-E1A inh	D2 ag	Sfp inh
O=C(NCc1ccc(F)cc1)C(=O)NCC1OCCN1C(=O)c1cccs1 (stereo not drawn)	-17	-2	1	4.3%	8	-2.4	19%
CCCNC(=O)c1cc(C)no1	2	-14	7	-1.1%	3	-3.8	13%
CCS(=O)(=O)c1ccc(Sc2nncn2C)c([N+](=O)[O-])c1	12	8	12	-1.0%	8	1.1	0%
Cc1cc(C)n(-c2nc3ccccc3nc2Nc2ccc3[nH]c(=O)[nH]c3c2)n1	16	-1	0	10%[38.3 µM]	-2	-3.5	2%
O=c1cc(CO)[nH]cc1OCc1ccccc1	-3	-5	3	-0.5%	10	-4.7	24%
CCN1C(=O)[C@H]2[C@@H](c3ccc(-c4ccc(C(C)=O)cc4)c(OC)c3)N3CCCC[C@@]3(C(=O)OC)[C@H]2C1=O	-13	/	-13	-0.4%	-10	-2.7	/
O=C(NCc1cccc(Cl)c1)C1CCN(c2nnc(N3CCCC3=O)s2)CC1	-5	11	0	1.1%	-2	-6.4	-1%
CC1CCC(NC(=O)c2ccc(CNc3c(NC4CCCCC4)c(=O)c3=O)cc2)CC1 (stereo not drawn)	-6	-5	5	5.3%	-2	-2.0	3%
CCN(CC)CCC(=O)Nc1cccc2c1C(=O)c1ccccc1C2=O	5	-6	-27	-2.3%	-28	7.6	0%
Cc1ccc(OCC(=O)Nc2ccc(S(=O)(=O)Nc3cc(C)nc(C)n3)cc2)cc1	0	6	-12	0.0%	-13	5.4	4%
CCN(C(=O)CN1C(=O)COc2ccc(S(=O)(=O)N3CCOCC3)cc21)c1ccc(OC)cc1	-4	-3	3	1.1%&-0.5%	-5	3.8	18%
Cc1cc(C)nc(NS(=O)(=O)c2ccc(NC(=O)Nc3ccccc3F)cc2)n1	-4	-2	4	1.2%	5	-3.2	-12%
COC(=O)Cc1ccc(NC(=O)c2ccc(C)c(C)c2)cc1	-28	-22	-2	/	10	-0.8	6%
COc1ccccc1CCNC(=O)COc1cccc2c1OC(C)(C)C2	-4	5	2	0.7%	5	-2.9	/
CCOC(=O)c1c(C)nsc1NC(=O)C1CCCCC1	-1	-27	7	0.5%	12	-1.5	-16%
COc1cc(OC)cc(C(=O)Nc2ccccc2-c2nnn(CC(N)=O)n2)c1	-3	5	-5	0.7%	-22	-0.5	-28%
O=S(=O)(NCC(c1ccc2c(c1)OCO2)N1CCOCC1)c1ccc(F)cc1 (stereo not drawn)	-7	8	-4	3.8%	6	-2.4	/
CCC(C(=O)Nc1cc(C)cc(C)n1)c1ccccc1 (stereo not drawn)	-5	/	7	2.9%	2	-4.2	/
Cc1cc(=O)oc2cc(OCC(=O)N3CCN(C(=O)C4COc5ccccc5O4)CC3)c(Cl)cc12 (stereo not drawn)	4	-6	-1	0.6%	-2	3.3	6%
Cc1[nH]c2ccccc2c1/C=N/NC(=O)CNC(=O)Cc1ccccc1	-25	-23	0	-0.9%	-2	-2.8	10%
COc1cc(Cl)c(C)cc1NC(=O)COC(=O)c1cc[n+]([O-])cc1	-3	-4	-2	2.0%	-1	-4.5	6%
COc1ccc(OC)c(C(C)NC(=O)Nc2cccc(C(C)=O)c2)c1 (stereo not drawn)	-11	-10	-4	2.0%	/	-1.4	-7%
CC1CC(C(F)F)n2nc(C(=O)Nc3sc4c(c3C#N)CCC(C(C)(C)C)C4)nc2N1 (stereo not drawn)	-3	-17	1	5.4%	6	-3.0	-1%
COc1ccc(NC(=O)C2Cc3c(-c4ccncc4)ccnc3O2)cc1OC (stereo not drawn)	-4	/	0	0.7%	3	3.1	/
Fc1ccc(Nc2nc(-c3ccncc3)nc3ccccc23)cc1F	-12	-1	-3	7.5%	-24	-5.8	-25%

A draw from above in order of molecular weight, lowest first.
SMILES	D2 potentiator	TRPV1 PAM	Six1-Eya2 blk	PINK1 modulator	CtBP-E1A inh	D2 ag	Sfp inh
COc1ccc(OC)c(C(C)NC(=O)Nc2cccc(C(C)=O)c2)c1 (stereo not drawn)	-11	-10	-4	2.0%	/	-1.4	-7%
Cc1[nH]c2ccccc2c1/C=N/NC(=O)CNC(=O)Cc1ccccc1	-25	-23	0	-0.9%	-2	-2.8	10%
Cc1cc(=O)oc2cc(OCC(=O)N3CCN(C(=O)C4COc5ccccc5O4)CC3)c(Cl)cc12 (stereo not drawn)	4	-6	-1	0.6%	-2	3.3	6%

(listing goes on)
SMILES	D2 potentiator	TRPV1 PAM	Six1-Eya2 blk	PINK1 modulator	CtBP-E1A inh	D2 ag	Sfp inh
CC1CCN(S(=O)(=O)c2cn(CC(=O)Nc3cccc(C#N)c3)cn2)CC1	-6	5	12	-0.5%	20	-4.9	22%
CCOC(=O)COc1ncn(-c2ccccc2)n1	5	-5	-4	-0.2%	6	-5.6	15%
COc1ccc(C(=O)NN(C)c2nc(C(F)(F)F)nc3ccccc23)cc1	11	9	1	5.7%	6	9.3	21%
CCCCNC(=O)Cn1cnc2ccc(S(=O)(=O)N3CCC(C)CC3)cc2c1=O	-9	4	8	4.6%	3	-4.9	0%
Cc1cc(C(=O)CN2C(=O)NC3(CCCCC3)C2=O)c(C)n1Cc1ccco1	-2	-26	-2	0.8%	-13	-4.5	14%
O=C(Cn1c2[n+](c3ccc(C(F)(F)F)cc31)CCCCC2)c1cccc([N+](=O)[O-])c1	-20	13	7	1.4%	/	-7.6	6%
CCCCCCCCC(=O)N/N=C/c1cccc(Br)c1	-7	-7	9	/	5	-3.1	-3%
COc1ccc(CCN(C)C(=O)c2c(C)nn(-c3ccccc3)c2C)cc1OC	-5	5	-2	-0.4%	5	-3.3	16%
COc1ccc(CNC(=O)C2(C)Cc3c(-c4cccc(C(N)=O)c4)ccnc3O2)cc1OC (stereo not drawn)	1	/	5	0.2%	-27	5.0	/
O=C(Nc1ccccc1Cl)c1ccc(-c2ccccn2)s1	-6	-16	-2	5.6%	-7	-4.1	16%
C[C@H](CO)N1C[C@H](C)[C@@H](CN(C)S(=O)(=O)c2ccccc2)Oc2ccc(NS(=O)(=O)c3cccs3)cc2C1=O	-4	/	5	1.9%	6	0.1	/
COc1cc([N+](=O)[O-])ccc1NC(=O)C[n+]1cccc(C)c1	-24	4	-3	-2.9%	3	-3.8	2%
Cc1ccc(C)c(CSc2nnc(-c3cccs3)n2Cc2ccco2)c1	-10	13	-7	-4.7%[38.3 µM]	-13	-2.2	-6%
CN1C(=O)c2ccccc2Sc2ccc(NC(=O)N3CCCC3)cc21	-7	-13	7	-1.6%	4	-1.4	27%
COc1cc(C(=O)Nc2ccc(O)cc2)ccc1OC(C)=O	-7	-7	0	-0.4%	-1	-1.5	13%
O=C(CN1C(=O)NC2(CCc3ccccc32)C1=O)Nc1ccccc1OC(F)F (stereo not drawn)	-2	-3	3	1.2%	5	1.8	/
O=C(Nc1cccnc1)C1CCCN(c2ncnc3c2nc2n3CCCCC2)C1 (stereo not drawn)	9	-17	-5	1.0%	-8	0.9	22%

Screening results as filed in PubChem BioAssay.
